# STK33 inh – blocks human STK33 kinase activity; purified STK33, MBP phosphorylation, ADP-Glo luminescence; AID 2661; actives 0.073% (n = 320,000); inhibition, % at 10 µM; Q9BYT3;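 active = inhibition at or above 25%, using the most active replicate where run in duplicate; inactive = inhibition below 25%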
# Target sequence (Q9BYT3 whole entry, looked up): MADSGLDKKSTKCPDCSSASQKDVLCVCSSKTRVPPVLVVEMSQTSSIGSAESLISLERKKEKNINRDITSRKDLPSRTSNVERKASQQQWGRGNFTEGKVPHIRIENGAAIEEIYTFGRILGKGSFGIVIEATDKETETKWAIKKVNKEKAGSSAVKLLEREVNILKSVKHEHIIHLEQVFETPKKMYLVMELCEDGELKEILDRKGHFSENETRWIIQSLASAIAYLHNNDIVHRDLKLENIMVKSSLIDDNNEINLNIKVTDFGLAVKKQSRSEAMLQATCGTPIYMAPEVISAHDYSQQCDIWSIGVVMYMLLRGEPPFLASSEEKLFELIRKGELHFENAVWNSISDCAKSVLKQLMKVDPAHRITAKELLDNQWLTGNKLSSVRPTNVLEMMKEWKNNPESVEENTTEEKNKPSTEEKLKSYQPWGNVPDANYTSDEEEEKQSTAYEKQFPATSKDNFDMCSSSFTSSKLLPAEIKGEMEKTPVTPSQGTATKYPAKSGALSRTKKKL
# Active calls of the source: *. Some of the compounds tested; most or all hits stand in other tables.
STK33 inh	SMILES
-0.3	COCCCNC(NC(=O)c1ccc(Cl)cc1)C(Cl)(Cl)Cl (stereo not drawn)
0.2	NC(=O)c1ccc(NC(=O)COC(=O)CCc2ccc(S(=O)(=O)N3CCCCC3)cc2)cc1
-0.1	CN(C(=O)COc1ccc(Cl)cc1Cl)c1nnc(C23CC4CC(CC(C4)C2)C3)s1
0.3	CC1CCN(C(=O)Nc2ccc3nsnc3c2)CC1
-1.2	CCC1(CC)Cc2ccccc2C(N)=C1C#N
0.6	COc1ccccc1NC(=S)NCCc1ccc(F)cc1
-1.6	Cc1cc2nn(-c3ccc(F)cc3)nc2cc1N
0.8	COc1ccc(NC(=O)c2cc(S(=O)(=O)N3CCCCC3)c[nH]2)cc1
1.9	CCOC(=O)Nc1cccc(Nc2ccccc2)c1
-1.1	Cc1sc2c(c1C)C(=O)/C(=C\Nc1ccncc1)S(=O)(=O)N2C
-0.3	Cc1occc1-c1nnc(SCC(=O)N2CCCCC2C)o1 (stereo not drawn)
-2.3	O=C(NCCCN1CCOCC1)C(=O)NCc1ccco1
2.4	C=CCOC(=O)C(=O)/C=C/c1c(C)n(C)n(-c2ccccc2)c1=O
-0.9	CCOc1ccc(C(C)=O)cc1CN1C(=O)C(=O)N(CC)C1=O
0.2	COc1ccc(C)cc1S(=O)(=O)N(CC(=O)NCc1ccco1)c1ccc(C)cc1
-1.1	CC(=O)c1ccc(NC(=O)C(C)Oc2ccc(N(C)S(=O)(=O)c3ccc(C)cc3)cc2)cc1 (stereo not drawn)
0.6	COc1ccc(OCc2cc(C(=O)NCC3(C)COC3)no2)c(Cl)c1
-0.5	C=C1CCC[C@]2(C)C[C@H]3OC(=O)C(CNC(CC)CO)[C@H]3CC12 (stereo partly drawn)
0.7	CC1(C)CC2CC(C)(CN2S(=O)(=O)c2ccccc2[N+](=O)[O-])C1 (stereo not drawn)
-0.6	Cc1ccn2cc(CNS(=O)(=O)c3cccs3)nc2c1
-1.0	Cc1ccccc1OCc1nc(-c2ccc(NC(=O)c3cccs3)cc2)no1
4.8	CCCOc1ccc(OCCCCNC(C)CC)cc1 (stereo not drawn)
4.5	CCS(=O)(=O)c1nc(S(=O)(=O)c2ccc(Cl)cc2)c(N2CCC(C(N)=O)CC2)s1
-0.8	COc1ccc(N(CC(=O)NCc2ccc(Cl)cc2)S(=O)(=O)c2c(C)n[nH]c2C)cc1
2.1	CC1CCc2sc3nc(N4CCN(CCO)CC4)n4ncnc4c3c2C1 (stereo not drawn)
-0.6	Cn1c(=O)oc2cc(S(=O)(=O)NCCC(=O)Nc3ccc4c(c3)OCCO4)ccc21
-0.7	C[C@H]1CN([C@@H](C)CO)C(=O)Cc2cc(NC(=O)CCC(F)(F)F)ccc2O[C@H]1CN(C)Cc1ccc(-c2ccccc2)cc1
2.7	c1cncc(CNc2ncnc3ccc(-c4ccoc4)cc23)c1
-0.8	CCc1ccc2oc(C(=O)NCc3ccncc3)c(C)c2c1
1.5	O=C(NC(=S)Nc1cccc2ncccc12)c1cccs1

# Overlap with the part before: 2 compounds; new compounds follow.
STK33 inh	SMILES
-0.8	CCc1ccc2oc(C(=O)NCc3ccncc3)c(C)c2c1
1.5	O=C(NC(=S)Nc1cccc2ncccc12)c1cccs1
0.1	CC(C)Cc1nnc(NC(=O)c2ccc3c(=O)n4c(nc3c2)CCC4)s1
0.5	COc1cc(-c2ncc3ccccn23)cc(OC)c1OC
-0.8	CCCC(=O)Nc1cc(-c2cn3cccnc3n2)ccc1OC
0.4	CCOc1cc(C(=O)N2CCC(CC3CC(c4cccc(Br)c4)=NO3)(C(=O)NCC3CCCCC3)CC2)cc(OCC)c1OCC (stereo not drawn)
-1.5	O=C(c1nc2ccccn2c1CN1CCN(c2ccccc2O)CC1)N1CCCC1
-1.7	O=C(c1ccco1)N1N=C(c2ccncc2)CC1(O)C(F)(F)F (stereo not drawn)
-1.9	O=S(=O)(Nc1ccc(-c2cn3cccnc3n2)cc1)c1ccccc1
0.8	CN(C(=O)CSc1nc(-c2ccc(C(C)(C)C)cc2)c(C#N)c(=O)[nH]1)C1CCCCC1
-1.0	O=C(NNC(=S)NC(=O)c1ccccc1[N+](=O)[O-])c1ccccc1Cl
-1.4	COc1cc2c(cc1OC)[C@@H](Cc1ccc(OCCC#N)cc1)N(C)CC2
0.1	CCOC(=O)N/N=C(\C)c1ccc(C)o1
0.8	Nc1cccc2nsnc12
-3.4	CS(=O)(=O)c1nc(-c2ccco2)cc(C(F)(F)F)n1
0.2	Fc1ccc(CSc2nncn2NC/C=C/c2ccccc2)cc1
-1.4	CC(C)(C)NC(=O)Nc1ccc(Cn2cc(C(F)(F)F)ccc2=O)cc1
-0.1	COc1ccc(-c2ccc(S(=O)(=O)NCC3CCCO3)cc2)cc1 (stereo not drawn)
-1.1	Nc1nnc(-c2ccc(Cl)c(Cl)c2)s1
0.8	CCCCN(C(=O)CSc1ncn[nH]1)c1c(N)n(Cc2ccccc2)c(=O)[nH]c1=O
1.3	CCC(Sc1ccccn1)C(=O)Nc1cccc([N+](=O)[O-])c1 (stereo not drawn)
-0.3	CC(C)c1ccc(/C=C/C(=O)NCCC2=CCCCC2)cc1
-0.1	O=C(NCCc1ccc(F)cc1)C1CCCCC1
-0.9	CCN(CC(=O)NCc1ccc(Cl)cc1)C(=O)c1ccc2cc(OC)ccc2c1
-0.7	CSC(=NC1CCCCC1)NS(=O)(=O)c1ccccc1
-3.1	CCN1CN(CCc2ccccc2)CNC1=S
0.0	Cc1ccc(NC(=O)C2CC(=O)OC23CCOC(C)(C)C3)cc1 (stereo not drawn)
-0.3	Cc1ccc2oc(C(=O)Nc3nnc(C)s3)c(C)c2c1
-0.6	Cc1ccccc1CNC(=O)c1ccc2ccccc2n1
-1.0	Cc1cc(C)n(Cc2ccc(C(=O)NN)o2)n1
-1.9	Cc1nn(C(C)C(=O)NC(C)CCc2ccccc2)c(=O)c2cc3occc3n12 (stereo not drawn)
0.4	O=C(NC1CCCCC1)c1cc(-c2cccc(Cl)c2)on1

# Copied from the listing, 4 compounds:
STK33 inh	SMILES
0.1	CC(C)Cc1nnc(NC(=O)c2ccc3c(=O)n4c(nc3c2)CCC4)s1
0.5	COc1cc(-c2ncc3ccccn23)cc(OC)c1OC
-0.8	CCCC(=O)Nc1cc(-c2cn3cccnc3n2)ccc1OC
0.4	CCOc1cc(C(=O)N2CCC(CC3CC(c4cccc(Br)c4)=NO3)(C(=O)NCC3CCCCC3)CC2)cc(OCC)c1OCC (stereo not drawn)

# Some of these compounds in order of the STK33 inh value, descending.
STK33 inh	SMILES
0.8	Nc1cccc2nsnc12
-0.6	Cc1ccccc1CNC(=O)c1ccc2ccccc2n1
-1.9	Cc1nn(C(C)C(=O)NC(C)CCc2ccccc2)c(=O)c2cc3occc3n12 (stereo not drawn)

# Other compounds:
STK33 inh	SMILES
-1.4	COC(=O)C1CN(C(=O)COc2cc(C)cc(C)c2)c2ccccc2O1 (stereo not drawn)
1.4	CC(C)(C)c1ccc(C(=O)Nc2cccc(C(=O)N3CCOCC3)c2)cc1
-1.0	CCOc1ccccc1C1N(c2ccc(F)cc2)C(=O)C2CCCN21 (stereo not drawn)
0.2	CCc1ccc(N(C(C)=O)c2nc(CCl)cs2)cc1
-2.1	CCCCCNC(=O)CCn1c(=O)oc2ccccc21
-0.9	CC1CCN(C(=O)CSC2=NS(=O)(=O)c3cc(F)ccc3N2)CC1
-0.6	O=C(c1cccc2ccccc12)N1CCN(c2ccc([N+](=O)[O-])c(N3CCOCC3)c2)CC1
8.4	Cc1ccc(CC2C(=O)N(CC(=O)O)C(=O)C2C)cc1 (stereo not drawn)
-2.2	Cc1ccc(S(=O)(=O)N2CCN(C(=O)Cc3ccc(S(=O)(=O)N4CCOCC4)s3)CC2)cc1
0.1	O=C(c1ccc(Br)s1)N1CCN(C/C=C/c2ccccc2)CC1
0.3	COc1ccc(NC(=S)NN2CCN(C)CC2)cc1
0.7	CCCCCCOc1ccc(N2C(=O)CC(NCCc3ccc(S(N)(=O)=O)cc3)C2=O)cc1 (stereo not drawn)
-0.5	CCCOc1ccc(C(O)(CCC)CCN2CCCCC2)cc1 (stereo not drawn)
0.3	O=C1C(Cc2c[nH]c3ccccc23)NC(=S)N1C1CCCCC1 (stereo not drawn)
-3.1	COc1cc(/C=N/N2CCN(c3ccccc3)CC2)ccc1OC(C)=O
-0.9	CC(C(=O)Nc1cccc([N+](=O)[O-])c1)n1nnc2ccccc21 (stereo not drawn)
0.5	O=C(Nc1ccc(Cl)c(Cl)c1)Nc1cc(C(=O)NC2CC2)ccc1Cl
-0.1	Cc1ccc2nc(C(=O)O)c(C(=O)O)nc2c1
-0.8	CC(=O)Nc1ccc(S(=O)(=O)NCC2CCC(C(=O)NCc3ccccc3)CC2)cc1 (stereo not drawn)
1.0	O=C(NC1CCCN(Cc2ccc(Cl)cc2)C1)c1ccnc(Cl)c1 (stereo not drawn)
0.0	Cn1c(=O)c2c(nc(CN3CCN(CCO)CC3)n2Cc2cccc3ccccc23)n(C)c1=O
-0.8	CNC(=S)N(CCc1ccc(S(N)(=O)=O)cc1)C1CC(=O)N(c2ccccc2F)C1=O (stereo not drawn)
-0.4	CCOC(=O)c1sc(N)c(C(=O)Nc2ccccc2OC)c1C
-0.3	Cc1ccc(NC(=O)C(=O)NCCOc2ccc(Cl)cc2)c(C)c1
-4.6	CCOC(=O)CNC(=S)N(Cc1ccco1)Cc1ccccc1Cl
-1.3	O=C(Nc1cccc(S(=O)(=O)N2CCCCC2)c1)c1cnccn1
0.5	COCCCNc1ccnc2c(Cl)cccc12
-3.3	CN(C)C(=O)CNC(=O)C1CCCCC1
1.0	N#Cc1cccc(CSc2nnc(CCCO)n2-c2ccccc2)c1
0.1	CCOC(=O)C1CCN(C(=O)COC(=O)COc2ccccc2OC)CC1
-0.9	O=C(CS(=O)(=O)c1cn(Cc2ccc(Cl)cc2)c2ccccc12)N1CCOCC1
1.8	CC1Sc2ccc(C(=O)Nc3cc(S(C)(=O)=O)ccc3Cl)cc2NC1=O (stereo not drawn)
2.7	CC1=N/C(=C\c2ccc3c(c2)OCO3)C(=O)N1c1ccc(C(=O)O)cc1
-0.7	O=C(Cn1c(=O)oc2cc(S(=O)(=O)N3CCOCC3)ccc21)N1CCc2ccccc2C1
0.5	CC(=O)c1cccc(NS(=O)(=O)c2ccc(N/C=C\C(=O)c3ccc(F)cc3)cc2)c1
-0.6	COc1ccc(C)cc1Nc1n[n+](-c2ccccc2)c(-c2cc([N+](=O)[O-])cc(OC)c2O)s1
-0.1	Cc1ccc(C(=O)NCC(=O)OC(C)C(=O)Nc2ccc(N(C)C)cc2)cc1C (stereo not drawn)
-1.1	COc1cccc(CN2CCNC(=O)C2CC(=O)NCCn2nc(C)cc2C)c1OC (stereo not drawn)
0.5	COc1ccccc1NC(=O)CSc1nc2sc3c(c2c(=O)n1-c1ccccc1)CCN(C)C3
9.7	CCOc1ccc(NS(=O)(=O)c2cnc(Cl)c(Cl)c2)cc1
-0.2	Cc1cc(C)c(NC(=O)COC(=O)c2cc([N+](=O)[O-])ccc2N2CCOCC2)c(C)c1
-0.6	CCn1c(C(Cc2ccccc2)NC(=O)COC)nc2ccccc21 (stereo not drawn)
-1.3	Cc1ccc(-c2csc(=S)n2CC(=O)OCC(=O)NCc2ccco2)cc1
0.1	N#Cc1c(-c2ccc(F)cc2)c2c([nH]c1=O)-c1ccccc1OC2
-1.4	CCC(CC)c1nnc(NC(=O)c2cccc(S(=O)(=O)N3CCOCC3)c2)s1
-0.9	O=C(NN=C1CCN(Cc2ccccc2)CC1)C(O)c1ccccc1 (stereo not drawn)
-1.3	O=C(O)c1cccc(NC(=S)NC(=O)c2cccc(OCc3ccccc3)c2)c1
-0.7	CCOC(=O)C(CC(=O)O)NCc1ccco1 (stereo not drawn)
-1.5	CCn1ncc(Br)c1C(=O)Nc1ccc(C(C)C)cc1
-1.5	O=C(O)c1cc2c(cc1Cl)N1CCCCCC1=NS2(=O)=O
0.7	CC1CCN(c2c(NCC3CCC(C(=O)NCCC4=CCCCC4)CC3)c(=O)c2=O)CC1 (stereo not drawn)
-1.5	Cc1[nH]c2ccccc2c1SCC(=O)N1CCC(C)CC1
-0.4	O=C(NCc1ccoc1)c1ccc(NC(=O)c2ccccc2Cl)cc1
-4.8	O=C(NC1CCCCC1)C(Cc1ccccc1)N1C(=O)C2C3CCC(C3)C2C1=O (stereo not drawn)
0.9	CCN1CC(CN(C)Cc2nc(-c3ccc(C(F)(F)F)cc3)oc2C)CC1=O (stereo not drawn)
-0.9	O=CN1CCN(C2CC(=O)N(c3ccc4c(c3)OCO4)C2=O)CC1 (stereo not drawn)
0.4	COc1ccc(C(c2c(C)[nH]n(C(N)=S)c2=O)C(C#N)C#N)cc1 (stereo not drawn)
0.6	Cc1cccc2c(C(=O)N3CCCCC3)cc(-c3ccccc3)nc12
-0.2	O=C(CSc1nnc(CNc2ccc(F)cc2)n1CC1CCCO1)Nc1ccccc1 (stereo not drawn)
1.6	Nc1nonc1-n1nnc(C(=O)N/N=C/c2c(Cl)cccc2Cl)c1CN1CCOCC1

# Part of the list above, with tabs:
smiles	STK33 inh
COc1ccccc1NC(=O)CSc1nc2sc3c(c2c(=O)n1-c1ccccc1)CCN(C)C3	0.5
Cc1ccc(-c2csc(=S)n2CC(=O)OCC(=O)NCc2ccco2)cc1	-1.3
O=C(NCc1ccoc1)c1ccc(NC(=O)c2ccccc2Cl)cc1	-0.4
N#Cc1c(-c2ccc(F)cc2)c2c([nH]c1=O)-c1ccccc1OC2	0.1
COc1ccc(C(c2c(C)[nH]n(C(N)=S)c2=O)C(C#N)C#N)cc1 (stereo not drawn)	0.4
CC1CCN(c2c(NCC3CCC(C(=O)NCCC4=CCCCC4)CC3)c(=O)c2=O)CC1 (stereo not drawn)	0.7
Cc1cccc2c(C(=O)N3CCCCC3)cc(-c3ccccc3)nc12	0.6

# Carrying on.
STK33 inh	SMILES
0.1	Cc1sc(NC(=O)c2ccco2)c(C(c2cccnc2)N2CCN(C)CC2)c1C (stereo not drawn)
-0.9	CCCCOC(=O)C1Cc2ccccc2C(=O)O1 (stereo not drawn)
-1.6	O=C(CCNC(=O)C1CCN(S(=O)(=O)c2ccc(F)cc2)CC1)NCc1ccccc1
-3.5	O=C(c1cn(-c2ccccc2)nc1-c1cccs1)N1CCN(c2ccc(F)cc2)CC1
-0.3	CCCCC1=CC2=C(c3ccco3)C(=O)C(C)(OC(=O)c3ccc(OC)cc3)C(=O)C2=CN1CCCN(CC)CC (stereo not drawn)
